Tg IFNy HTS: T. gondii growth inhibition under IFN-gamma. activity change, negative = inhibition, %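 (about 20 µM by stock and volumes)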. actives 3.8% (n = 69,000). Toxoplasma gondii growth in IFN-gamma-treated host cells; active compounds read low; reference of the scale not given here;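 active = below -70%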;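 note: host cells are HeLa cells infected with Toxoplasma gondii; parasite growth read as luciferase light; one replicate is shown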
* hit, by the source's call; & = joins results of further samples. Not all compounds are listed; the hit share may differ from the screen's.

SMILES	Tg IFNy HTS
CC(=O)OCCNC(=O)c1cccnc1	2
COC(=O)[C@H]1CN(C(=O)c2c[nH]n3c(=O)cc(C)nc23)C[C@@H]1c1ccc(F)cc1	-9
O=C1CCc2cc(S(=O)(=O)N3CCOCC3)cc3c2N1CCC3	113
C=CCOC[C@H]1CCC2C(CCN2C(=O)c2ccc3c(c2)OCO3)O1 (stereo partly drawn)	-3
O=C(CCSc1ccccc1)N1CCCC1	127
O=C(C1CCC1)N1CC(=O)N2[C@H](CO)[C@H](c3ccc(Br)cc3)[C@@H]2C1	-2
COc1ccc(N2CCN(C(=O)CN3CCC(Cc4cc(N)nc(C)n4)CC3)CC2)cc1	19
C[C@@H]1CN([C@@H](C)CO)C(=O)c2ccccc2-c2ccccc2CO[C@@H]1CN(C)C(=O)Nc1ccnc(N2CCOCC2)c1	-47
Cc1oc2cc(O)cc(O)c2c(=O)c1-c1ccc2c(c1)OCCCO2	48
Nc1nc(N2CC(c3ccccn3)C2)c2cn[nH]c2n1	1
Cc1ccccc1CN1CCC2(CC1)CC(NC(=O)C1CC1)C2	-1
CN(C)CCN1CCOCC2(CCCN(C(=O)c3cc4ccccc4[nH]3)C2)C1 (stereo not drawn)	53
CCc1nc(OCC(=O)Nc2cc(C)ccc2C)c2ccccc2n1	4
COc1ccc2c3c([nH]c2c1)[C@H](CO)N(C(=O)Nc1cccc(F)c1)CC31CN(CC2CC2)C1	31
CC1c2ncc(COCC3CC3)n2CCN1C (stereo not drawn)	28
COc1ccc2c(c1)NC1(CCN(C(=O)Nc3ccc(F)c(Cl)c3)CC1)c1cccn1-2	93
COc1cc2c(cc1-c1nccn1C(C)Cc1cnccn1)OCCCO2 (stereo not drawn)	7
CCN(C[C@@H]1[C@H](c2ccccc2)[C@@H](CO)N1CC1CC1)C(=O)c1ccccn1	-18
O=C(c1ccccc1)c1ccccc1C(=O)c1ccccc1	-10
Cc1oc(-c2ccc(Cl)cc2)cc1COC(=O)Nc1ccc(OC(F)(F)F)cc1	-19
Cc1ccccc1-c1ccccc1[C@H]1[C@@H](C#N)N(C(=O)c2ccc(F)cc2)[C@@H]1CO	-40
Cc1ccc(C)c(NC(=O)c2nnn(Cc3nc(-c4ccccc4)oc3C)c2C)c1	-25
Cc1ccc2c(c1)OC(=O)CC2c1ccccc1 (stereo not drawn)	14
CC(C)c1ncc(-c2cc(C(=O)N(C)C(C)C)c3ccccc3n2)cn1	-9
Cn1nc(CNc2ncccn2)c2c1CN(C(=O)c1ccccc1F)CC2	-106*
COCc1nnn2c1CN(C(=O)c1ccsc1)CCC2	-33
Cc1cnc(CNS(=O)(=O)NCc2ccccc2)cn1	-5
CC(C)n1cnc(-c2cc(C(=O)N3CCC(N(C)C)CC3)c3ccccn23)c1	-48
C[C@@H]1CCCCO[C@H](CN(C)Cc2ccc(C(F)(F)F)cc2)[C@@H](C)CN([C@@H](C)CO)C(=O)c2cc(NC(=O)Nc3cccc4ccccc34)ccc2O1	188
C=CCO[C@H]1CC[C@@H]2[C@@H]1OCCN2C(=O)c1oc2ccccc2c1C	-3
Cc1ccc2c(c1)C(=O)NCC1(CCN(C(=O)c3cnccn3)CC1)O2	12
Cc1cccc(C)c1-n1c(C2CC3CCC2O3)n[nH]c1=S (stereo not drawn)	-14
COc1cccc(F)c1-c1nc2c(C)cccc2cc1CO	35
Cc1cnc2c(C(=O)N3CCCCC3c3cccnc3)cnn2c1 (stereo not drawn)	4
COc1cccc(NC(=O)C23CCN(C(C)=O)CC2C3)c1 (stereo not drawn)	-42
O=C(CN1CCN(c2ccc(C(F)(F)F)cn2)CC1)c1cc2ccccc2o1	80
CCn1c(C2CCNCC2)nn(Cc2ncccn2)c1=O	-3
NC(=O)C1CCCc2c1[nH]c1ccc(Cl)cc21 (stereo not drawn)	-8
COc1ccc(CC(=O)N2CCn3cnc(COCC4CC4)c3C2)cc1	4
CN(C)C(=O)NCc1nnn2c1CN(CC1CCOCC1)CCC2	2
O=C(CN1Cc2ccccc2OC(c2ccsc2)C1)N1CCCC1c1nccs1 (stereo not drawn)	4
CN(c1ccccc1)c1ccc2ccc(C(=O)N3CCC(N(C)C)C3)cn12 (stereo not drawn)	-7
O=C(NCCOc1ccccc1F)C(=O)N1CCCC1	2
CC(=O)Nc1ccc(Oc2c(F)c(F)c(Oc3ccc(NC(C)=O)cc3)c(F)c2F)cc1	40
Fc1cccc(/C=N/N=C/c2cccc(F)c2)c1	14&22
CC(C)(Oc1ccc(Cl)cc1)C(=O)N1CCOCC1	-14
CCCC(=O)N1CCC(c2nc(-c3ccccn3)no2)C1 (stereo not drawn)	6
COc1ccc(-c2nc(C)c(CCNC(=O)C(=O)Nc3ccc([N+](=O)[O-])cc3)s2)cc1OC	55
COC(=O)c1cc(=O)n2c(c1C(=O)c1cccs1)SCC2	24
Cc1[nH]c(-c2ccc(F)cc2)nc1C(=O)O	-34
CN1CCN(C(c2ccc(Cl)cc2)c2nnnn2C2CCCCC2)CC1 (stereo not drawn)	-30
O=C(Nc1cnc2n1CCCC2)c1ccccc1-n1cncn1	-2
COc1cccc(NC(=O)NC(c2nnc3n2CCNCC3)C(C)C)c1 (stereo not drawn)	79
CCS(=O)(=O)N1CCC[C@@H]1Cn1c(C(F)(F)F)cc(=O)c2cc(C)ccc21	-36
O=C(c1cc(=O)[nH]c2cc(F)ccc12)N1CCCC(N2CCCC2)C1 (stereo not drawn)	-39
Cc1noc([C@H]2COC[C@@H]3CN(S(=O)(=O)CC(C)C)C[C@@H]32)n1	0
CS(=O)(=O)N1CCN(c2ccnc3cc(Cl)ccc23)CC1	-7
O=C(O)CN1CCN(CC(=O)O)CCN([C@H](CO)C(O)CO)CCN(CC(=O)O)CC1.[Gd] (stereo partly drawn)	15
O=S(=O)(CCN1CCN(C(c2ccccc2)c2ccccc2)CC1)c1ccc(F)cc1	-37
CN(CCc1ccccc1)C1CCCN(C(=O)c2c[nH]c(=O)cc2O)C1 (stereo not drawn)	3
Carrying on:
SMILES	Tg IFNy HTS
CN(C)Cc1cc(C2CCCN(C(=O)CC3(O)CCCCC3)C2)nn1C (stereo not drawn)	4
CCC(CC)C(=O)N1CCC2(CC1)COCCN(Cc1ccncc1)C2	5
Cc1nnsc1C(=O)N(Cc1ccccc1)C(C)C	-6
C/C=C/c1ccc([C@H]2[C@@H](C#N)N(C(=O)NC3CCCCC3)[C@H]2CO)cc1	-23
CN(C)CC1(O)CCCN(C(=O)CCn2cc(Cl)cn2)C1 (stereo not drawn)	1
Cc1cc(C)cc(Nc2nc(-c3nnc(-c4ccccc4)o3)nc3ccccc23)c1	42
CCC(=O)N1[C@H](CO)[C@H](c2ccc(-c3cccc(OC)c3)cc2)[C@H]1CNC(C)=O	-11
COCCN1CCO[C@H]2CN(C(=O)COc3ccccc3)CC[C@@H]2C1	-2
COCC(=O)NC[C@@H]1[C@H](c2ccccc2)[C@@H](CO)N1C(=O)c1ccccc1	8
CCCc1cnc(C)nc1-c1cccc(CN2CCOCC2)c1	0
CNc1cc(C(=O)N2CCCN(Cc3ccc(F)cc3)C(C(C)C)C2)ccn1 (stereo not drawn)	-3
CS(=O)(=O)NC[C@@H]1OC[C@@H]2CN(C(=O)c3ccnnc3)CC[C@@H]21	-3
C=CCN1CC2(CCN(Cc3cccnc3OC)CC2)OCC1=O	-1
O=C(NCC[C@H]1CC[C@@H](NC(=O)c2ccccc2F)[C@@H](CO)O1)c1cnccn1	26
CCCC1(NC(=O)c2cncc(Cl)c2)CC1	-9
CN(Cc1nc2ccccc2[nH]1)C(=O)CCNC(=O)c1ccc(F)cc1	-49
CCN(C(=O)CSc1nnc(C)s1)[C@H]1COC[C@@H]1O	9
COCC(=O)N1CC[C@@H](N2CCN(C)CC2)[C@H]1Cc1ccncc1	15
CCOC(=O)c1nc(NCc2ccccc2OC)c2ccccc2n1	56
CCOc1ccc(-c2noc(-c3c(O)c4ccccc4n(CC)c3=O)n2)cc1	60

Another view of some results above.
Structure,Tg IFNy HTS
CS(=O)(=O)N1CCN(c2ccnc3cc(Cl)ccc23)CC1,-7
COC(=O)c1cc(=O)n2c(c1C(=O)c1cccs1)SCC2,24

Further records follow.
SMILES	Tg IFNy HTS
Cc1noc(C)c1S(=O)(=O)N1CCCC(C(=O)Nc2nc(C(C)C)cs2)C1 (stereo not drawn)	4
O=C(c1cc2c(c(-c3cccc(-c4ccc(F)cc4)c3)n1)[C@@H](CCO)N(C(=O)c1ccc3c(c1)OCO3)C2)N1CCOCC1	-59
CC(c1cccc(-c2cc(N3CCOCC3)nc(N)n2)c1)N1CCCC1 (stereo not drawn)	7
Cc1noc(C)c1NC(=O)Nc1ccc2c(c1)C(=O)N(C)[C@H]1CC[C@@H](CC(=O)N[C@H]3CCN(Cc4ccccc4)C3)O[C@@H]1CO2	6
OC(CSc1nc(-c2ccccc2)ns1)C(F)(F)F (stereo not drawn)	148
Cc1cnn(Cc2nc(-c3ccc(NC(=O)c4ccc(C#N)cc4)cc3)oc2C)c1	-52
Cc1cc(C(F)(F)F)c(C#N)c(SCC(=O)NC(C)C23CC4CC(CC(C4)C2)C3)n1 (stereo not drawn)	-58
CCn1nc(C)cc1C(=O)N1CCC2OCCCC2(COC)C1 (stereo not drawn)	-14
CCCC(=O)N1CCc2ncc(CN(C)Cc3cncnc3)n2CC1	-14
COCCN1C(=O)CCc2cc(NC(=O)C(C)(C)C)ccc21	-1
O=S(=O)(c1ccc(Cl)cc1)N1CCC2(CC1)Nc1ccc(Cl)cc1-n1cccc12	11
COCCO[C@H]1CCN(Cc2c(C)noc2C)[C@H]1Cc1ccccc1	-31
CCn1c(=O)c(-c2nc(-c3ccc(F)c(F)c3)no2)c(O)c2ccccc21	-2
CN1C(=O)CCc2cc(NS(=O)(=O)c3ccccc3C(F)(F)F)ccc21	-12
Cc1nc2cc(Cl)ccc2c(=O)n1CC1CCCO1 (stereo not drawn)	33
CCOc1ccc(-c2noc(-c3c(O)c4cc(Cl)ccc4[nH]c3=O)n2)cc1	-30
CC(C)c1noc(-c2cc(=O)n(CC(=O)Nc3ccc(F)cc3)c3ccccc23)n1	-14
Cc1nnc(SCC(=O)N2CCc3[nH]c4ccc(F)cc4c3C2)o1	-7
Cc1ccc(CN(Cc2ccncc2)Cc2cnc(N3CCCCC3)nc2)cc1	39
Cc1ccc(C)c(OCc2cc(C(=O)NCc3nnc4n3CCC4)no2)c1	2

Some of the entries so far, as labelled records.
> CN(CCc1ccccc1)C1CCCN(C(=O)c2c[nH]c(=O)cc2O)C1 (stereo not drawn)
  Tg IFNy HTS = 3
> CN(C)Cc1cc(C2CCCN(C(=O)CC3(O)CCCCC3)C2)nn1C (stereo not drawn)
  Tg IFNy HTS = 4
> CCC(CC)C(=O)N1CCC2(CC1)COCCN(Cc1ccncc1)C2
  Tg IFNy HTS = 5
> Cc1nnsc1C(=O)N(Cc1ccccc1)C(C)C
  Tg IFNy HTS = -6

Quoted at random: 6 records from the list, in no set order.
SMILES	Tg IFNy HTS
CCOc1ccc(-c2noc(-c3c(O)c4cc(Cl)ccc4[nH]c3=O)n2)cc1	-30
COCCN1C(=O)CCc2cc(NC(=O)C(C)(C)C)ccc21	-1
Cc1noc(C)c1S(=O)(=O)N1CCCC(C(=O)Nc2nc(C(C)C)cs2)C1 (stereo not drawn)	4
Cc1noc(C)c1NC(=O)Nc1ccc2c(c1)C(=O)N(C)[C@H]1CC[C@@H](CC(=O)N[C@H]3CCN(Cc4ccccc4)C3)O[C@@H]1CO2	6
Cc1nc2cc(Cl)ccc2c(=O)n1CC1CCCO1 (stereo not drawn)	33
O=C(c1cc2c(c(-c3cccc(-c4ccc(F)cc4)c3)n1)[C@@H](CCO)N(C(=O)c1ccc3c(c1)OCO3)C2)N1CCOCC1	-59

Carrying on:
SMILES	Tg IFNy HTS
CC(C)N(CCc1ccccc1)C(=O)C1CCOC1 (stereo not drawn)	-10
CCN(CC)c1ncnc2c1cnn2CC(=O)NC(C)c1ccccc1 (stereo not drawn)	72
Cc1cccc(NC(=O)c2ccc(-c3nc(CN4CCN(c5ccccc5)CC4)c(C)o3)cc2)c1C	45
CCOc1ccccc1NC(=O)N1CCC2(CC1)NC(=O)c1cc(C)ccc1N2C	2
C=CCn1c(-c2ccccc2)n[nH]c1=S	53
Cc1ccc(N2CC[C@H]3OCC[C@]3(C(=O)N(C)C)C2)nn1	1
COc1ccc(-c2nnc(-c3nc(NCc4cccc(Cl)c4)c4ccccc4n3)o2)cc1	363
c1cncc(COC2CCN(Cc3cnc(-c4cccs4)nc3)CC2)c1	15
Clc1ccccc1-c1nnc(Cc2cc(Br)sc2Br)o1	-90*
CCCCN(C(=O)c1ccc(CN(C)C)o1)C1CCCCCC1	-5
C[C@H]1CN([C@@H](C)CO)C(=O)c2cccc(NS(C)(=O)=O)c2O[C@H]1CN(C)Cc1ccc(-c2ccccc2)cc1	-25
Cc1noc(C)c1NC(=O)Nc1ccc2c(c1)C(=O)N([C@H](C)CO)C[C@H](C)[C@H](CN(C)Cc1ccc3c(c1)OCO3)OCCCC[C@@H](C)O2	374
COCCN1CCN(C(=O)N2CCOCC2)Cc2ccc(C)nc21	-40
CN(C)CC1(O)CCN(C(=O)C2(c3ccccc3)CC2)C1 (stereo not drawn)	-3
CN(CCc1ccccc1)C(=O)[C@@]12CNC[C@@H]1CN(S(C)(=O)=O)C2	3
COc1ccccc1-c1cc2c(=O)n(Cc3nc(-c4ccccc4C)oc3C)ccn2n1	-13
CCNC(=O)CN1C(=O)CCc2cc(S(=O)(=O)N3CCC(C)CC3)ccc21	7
COc1cccc(CN2CC3(CCN(S(C)(=O)=O)CC3)c3c(n(C)c4cc(OC)ccc34)[C@H]2CO)c1	435
CN1CC=C(/C=C/c2ccc(Sc3ncccn3)o2)CC1	-3
COc1ccc(CCCc2nc3ccccc3[nH]2)cc1	-51
COc1cc(OC)c(CN2CCN(C)C(C(=O)O)C2)cc1Cl (stereo not drawn)	-3
CCC(C(=O)NCc1noc(-c2ccc(C)cc2)n1)n1cnc2ccccc21 (stereo not drawn)	-57
COCCOc1cc(CNc2nc(C)n(C)n2)ccc1OC	7
